MT1-MMP reporter – MT1-MMP gene expression reporter suppression – cell-based, luciferase reporter, luminescence (AID 618). calls from a first round at 10 µM; hits with a dose series show EC50 in µM. actives 0.62% (n = 87,000). MT1-MMP promoter luciferase reporter cells, luminescence;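 active means over half of the reporter light lost at 10 µM or EC50 under 50 µM; inactive means the rest and hits that failed the dose series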;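 further: actives suppress MT1-MMP promoter-driven transcription so potencies describe inhibitors; HT1080 fibrosarcoma cells; overnight exposure; toxic or luciferase-blocking compounds were not removed from the actives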
Calls only; i = inactive. The list is partial; rates above refer to the full screens.

SMILES	MT1-MMP reporter
CC1=C(C(=O)OCc2ccccc2)C(c2ccccc2Cl)NC(=O)N1CCCC(=O)O (configuration not stated)	i
CS(=O)(=O)N(Cc1ccc(Cl)cc1)c1ccc(C(=O)NCCSCc2ccco2)cc1	i
COc1ccc(CN2CCc3ccccc3C2)c(OC)c1OC	i
CC(=O)c1c(N2CCOCC2)nc(=O)n(-c2ccccc2)c1C	i
CC(C)(C)N1CC(c2nc3ccccc3n2Cc2ccc(F)cc2)CC1=O (configuration not stated)	i
Cc1cccc(N2CCN(Cc3ccoc3)CC2)c1C	i
COC(=O)[C@@]1(Cc2ccc(F)cc2)[C@H]2c3cc(C(=O)N4CCCC4)n(Cc4ccc(C(F)(F)F)nc4)c3C[C@H]2CN1C(=O)c1ccccc1	i
N#Cc1c2n(c3c(=S)nc[nH]c13)CCCCC2	i
COc1cc(/C=C/c2ccc3cccc(OC)c3n2)c(OC(C)=O)c([N+](=O)[O-])c1	i
CCCCNC(c1ccccc1)c1ccncc1 (configuration not stated)	i
O=C(NCc1ccccc1)c1ccc2c(=O)n(CCCN3CCCC3=O)c(=S)[nH]c2c1	i
O=C(CN1C(=O)c2ccccc2C1=O)N1CCN(C(=O)c2ccco2)CC1	i
COC(=O)[C@@H]1C[C@@H]2CC[C@@H](O)C[C@@H]2N1Cc1ccc(OC)cc1	i
CCCc1nnc(N2C(=O)c3cccc4cccc(c34)C2=O)s1	i
CCN(CC)C(=O)c1ccc2c(=O)n(CCOC)c(=S)[nH]c2c1	i
CCCCCn1cnc2sc(-c3ccccc3)cc2c1=O	i
CCC1=C(OC(=O)N(CC)CC)N2C(=O)OC(=NCCc3c[nH]c4ccccc34)[C@]2(Cc2ccccc2)[C@H]2C1=CC[C@H]1C(=O)N(c3ccccc3)C(=O)[C@H]12	i
NC(=O)c1ncc(C(F)(F)F)cc1Oc1cccc(F)c1	i
CN(C)/C=N/c1cc(=O)n(C)c(=O)n1Cc1ccccc1	i
COc1ccc(C(CC(=O)O)NS(=O)(=O)c2ccc(C)cc2)cc1 (configuration not stated)	i

Overlap with the part before: seven compounds, then new ones.
SMILES	MT1-MMP reporter
CCCc1nnc(N2C(=O)c3cccc4cccc(c34)C2=O)s1	i
CCN(CC)C(=O)c1ccc2c(=O)n(CCOC)c(=S)[nH]c2c1	i
CCCCCn1cnc2sc(-c3ccccc3)cc2c1=O	i
CCC1=C(OC(=O)N(CC)CC)N2C(=O)OC(=NCCc3c[nH]c4ccccc34)[C@]2(Cc2ccccc2)[C@H]2C1=CC[C@H]1C(=O)N(c3ccccc3)C(=O)[C@H]12	i
NC(=O)c1ncc(C(F)(F)F)cc1Oc1cccc(F)c1	i
CN(C)/C=N/c1cc(=O)n(C)c(=O)n1Cc1ccccc1	i
COc1ccc(C(CC(=O)O)NS(=O)(=O)c2ccc(C)cc2)cc1 (configuration not stated)	i
COc1ccc(C(C(=O)Nc2ccc(C(C)C)cc2)N(C)C(=O)CNC(C)=O)cc1 (configuration not stated)	i
Nc1nc(SCc2nc(-c3ccccc3)no2)[nH]c(=O)c1-c1ccccc1	i
COc1cc(OC)cc(-c2nc3ccccc3s2)c1	i
COC(=O)c1cccc(C23CC4(C2)[C@H](CN(C)[C@@H]4c2ccccc2)C3c2ccc(Cl)nc2)c1 (some centres not stated)	i
COc1ccc(CNCCSc2nnnn2C)cc1OC	i
Cc1cc2ccccc2c(=O)n1CC(=O)NCC(=O)N1CCCC(C)C1 (configuration not stated)	i
COC(=O)[C@H](Cc1ccccc1)NC(=O)[C@]1(C)C[C@H]1[C@H](NC(=O)OCc1ccccc1)c1ccccc1	i
c1ccc2cc(CN3CCOCC3)ccc2c1	i
CCOC(=O)C1=C(C)N(CCCC(=O)O)C(=O)NC1c1ccccc1OC(=O)c1ccc(I)cc1 (configuration not stated)	i
CCOC(=O)/C(C(N)=NCC(C)C)=C(/O)c1ccccc1	i

Two neighbouring entries already listed, for reference:
SMILES	MT1-MMP reporter
CCOC(=O)C1=C(C)N(CCCC(=O)O)C(=O)NC1c1ccccc1OC(=O)c1ccc(I)cc1 (configuration not stated)	i
CCOC(=O)/C(C(N)=NCC(C)C)=C(/O)c1ccccc1	i

Following part.
SMILES	MT1-MMP reporter
COc1ccccc1C(=O)Nc1nc(N)n(-c2ccccc2)n1	i
C[C@@]1(C(NC(=O)Cc2ccc(C(F)(F)F)cc2)c2ccc(-c3ccccc3)cc2)C[C@H]1C1CCCCC1 (some centres not stated)	i
CCc1ccc(OCc2nnc(NC(=O)c3cccs3)s2)cc1	i
COC(=O)[C@@]1(Cc2ccc(F)cc2)[C@H]2c3cc(C(=O)N(C)C)n(Cc4ccc(S(C)(=O)=O)cc4)c3C[C@H]2CN1C(=O)c1ccccc1	i
CCOc1cc(CNn2nnnc2N)cc(Cl)c1OCC(=O)NC(C)(C)C	i
OC1(c2ccc3ccccc3c2)CCN(Cc2ccccc2)C1 (configuration not stated)	i
COc1ccc(CCNC(=O)c2ccc(CS(=O)(=O)c3ccc(Cl)cc3)o2)cc1OC	i
C[C@@H](C(=O)NCc1ccccn1)[C@H]1C[C@]1(C)[C@H](NC(=O)OCc1ccccc1)c1ccccc1	i
Cc1nn(C(C)C(=O)NCc2ccccc2Cl)c(=O)c2c1sc1ccccc12 (configuration not stated)	i
COc1ccc(C2(CNC(=O)Cc3ccccc3)CCCC2)cc1OC	i

Looked up by structure from the list above (2):
SMILES	MT1-MMP reporter
Cc1nn(C(C)C(=O)NCc2ccccc2Cl)c(=O)c2c1sc1ccccc12 (configuration not stated)	i
CCOc1cc(CNn2nnnc2N)cc(Cl)c1OCC(=O)NC(C)(C)C	i

(listing goes on)
SMILES	MT1-MMP reporter
CCC1=C(OC(=O)N(CC)CC)N2C(=O)OC(=NCC(=O)OC)[C@]2(Cc2ccccc2)[C@H]2C1=CC[C@H]1C(=O)NC(=O)[C@H]12	i
CC(C)(C)NS(=O)(=O)c1ccc(OCC(=O)NCCC2=CCCCC2)cc1	i
Cc1cc(C)c(OCCOCCN2CCNCC2)c(C)c1	i
CCN(Cc1ccccc1)C(=O)COc1cc(=O)n(CC)c2ccccc12	i
CC1CCN(C(=S)c2ccc3c(c2)OCO3)CC1	i
CCCNC(=O)c1csc2c1CCCCC2	i
COc1ccc2c(c1)C(C1=C(O)CC(C)(C)CC1=O)C1=C(CC(C)(C)CC1=O)O2 (configuration not stated)	i
CCC/C=C(\CCC)C(NC(=O)c1ccc(C(=O)OC)cc1)c1ccc(C(=O)OC)cc1 (configuration not stated)	i
COc1ccc(C)cc1NC(=S)NNC(=O)c1ccccc1Cl	i
Cc1cccc(-n2c(C)cc(/C=N/n3cnnc3)c2C)c1	i

Ordered by length of the SMILES (ascending): part of the list above.
SMILES	MT1-MMP reporter
CCCNC(=O)c1csc2c1CCCCC2	i
CC1CCN(C(=S)c2ccc3c(c2)OCO3)CC1	i
CC(C)(C)NS(=O)(=O)c1ccc(OCC(=O)NCCC2=CCCCC2)cc1	i

(list continues)
SMILES	MT1-MMP reporter
CCOC(=O)c1ccc(NC(=O)CC2C(=O)N(c3ccccc3)C(=O)N2CCCOC)cc1 (configuration not stated)	i
COC(=O)[C@@]1(Cc2ccc(OC)cc2)[C@H]2c3cc(C(=O)N(C)C)n(CCSCCO)c3C[C@H]2CN1C(=O)c1ccccc1	i
CSc1nc(C)cc(SC(C(C)=O)C(=O)Nc2ccccc2)n1 (configuration not stated)	i
COC(=O)c1ccc(C)c(NS(=O)(=O)c2ccc(OC)c(OC)c2)c1	i
N/C(=N\OC(=O)Oc1ccccc1)c1ccc(Br)cc1	i
COc1ccccc1CNC(=O)CCCOc1cc(=O)n(C)c2ccccc12	i
CCC1=C2CC[C@H]3C(=O)N(c4ccccc4)C(=O)[C@H]3[C@H]2[C@@]2(Cc3ccccc3)C(=NCc3ccccc3)OC(=O)N2C1=O	i
CCC1=C2CC[C@H]3C(=O)N(CC)C(=O)[C@H]3[C@H]2[C@@]2(C)C(=NCC(=O)OC)OC(=O)N2C1=O	i
CC(C)(C)C(=O)NC(c1ccc(Cl)cc1)[C@]1(C)C[C@H]1C1CCCCC1 (some centres not stated)	i
Cc1nc([N+](=O)[O-])c(Br)n1CC(=O)c1ccc2ccccc2c1	i
C[C@@H]1C=C[C@](Cc2ccccc2)(C(=O)NCCCNc2ncc(C(F)(F)F)cc2Cl)N1C(=O)c1ccccc1	i
CCN(CC)CCCn1c(=S)[nH]c2ncccc2c1=O	i
COC(=O)c1ccc(C(NC(=O)OCc2ccccc2)/C(C)=C/[C@@H](C)C(=O)NCc2ccc(-c3ccccc3)cc2)cc1 (some centres not stated)	i
COC(=O)[C@@H]1C[C@@]2(O)[C@H](O)[C@H](O)[C@H](O)C[C@H]2N1Cc1ccc(N2CCOCC2)cc1	i
O=c1c2c(nc(NCCO)n1CC1CCCCC1)-c1ccccc1CC21CCCC1	i
Cc1ccc(S(=O)(=O)NC(=NCC(=O)O)c2ccc(F)cc2)cc1	i
O=C1CSC(c2cn(-c3ccccc3)nc2-c2cccs2)N1Cc1ccccc1 (configuration not stated)	i
COc1ccc(CN2C(=O)CN(C3CCCCCC3)C(=O)C2c2ccc(F)cc2)cc1 (configuration not stated)	i
CN1CCN(C(=O)CCNC(=O)Cn2ccc3ccccc3c2=O)CC1	i
Cc1ccc(NC(=O)c2noc3c2CCc2ccccc2-3)cc1	i
COC(=O)[C@@H]1C[C@@]2(O)[C@H](O)[C@H](O)[C@H](O)C[C@H]2N1CC1CCCCC1	i
COc1ccc(C(=O)Nc2sc3c(c2C(=O)NCc2ccco2)CCCC3)cc1OC	i
CCCOC(=O)Nc1nnc(CCC)s1	i
Cc1ccccc1NC1(C#N)C(=O)Nc2ccccc21 (configuration not stated)	i
CC(C)(C)C1CCC(OCC(O)CN2CCN(c3ccccc3)CC2)CC1 (configuration not stated)	i
CC(=O)N1[C@H](C)C=C[C@]1(Cc1ccccc1)C(=O)NCCc1c[nH]c2ccccc12	i
COc1ccc(-n2c(-c3cnccn3)n[nH]c2=S)cc1	i
CCOC(=O)N1CCC(NC(=O)c2cc(C(=O)NCC(OC)OC)ccc2CO)CC1	i
C=CCn1c(CCCOc2ccc(Cl)cc2Cl)nnc1SCC(=O)Nc1nccs1	i
O=C1c2ccccc2C(=O)N1c1cccnc1	i
COC(=O)c1ccc(C(NC(=O)OCc2ccccc2)/C(C)=C/[C@@H](C)C(=O)Nc2ccc(OC)cc2)cc1 (some centres not stated)	i
CNC(=O)COc1ccccc1C(=O)Nc1ccc2c(c1)oc1ccccc12	i
CCOc1cc(-c2nc(-c3ccccc3)c(-c3cc([N+](=O)[O-])ccc3C)[nH]2)ccc1O	i
O=C(NCC#CC(CCc1ccccc1)OCc1ccccc1)c1ccccc1 (configuration not stated)	i
Cc1cccc(OCC(=O)O/N=C(\N)c2ccccn2)c1	i
CCOc1ccc(NC(=O)CCS(=O)(=O)c2ccc3c(c2)CCCN3C(=O)CC)cc1	i
Nc1nncn1C(=O)CCCOc1ccccc1	i
Cc1cnn(-c2ccc3nnc(-c4ccc(Cl)cc4)n3n2)c1	i
CC1=C(C(=O)OCc2ccccc2)C(c2ccc(C3CCCCC3)cc2)NC(=O)N1CCCCCC(=O)O (configuration not stated)	i
COCCn1c(C(=O)N(C)C)cc2c1C[C@H]1CN(C(=O)c3ccccc3)[C@@](Cc3ccc(F)cc3)(C(=O)OC)[C@@H]21	i
COc1ccc(NC(=O)C(NC(=O)CNC(C)=O)c2ccc(C)cc2)cc1 (configuration not stated)	i
Cc1c(O)c(O)cc2c1oc1c3ccccc3oc(=O)c21	i
CCOC(=O)c1ccc(-n2cncn2)nc1	i
CCOC(=O)C1=C(C)N(CCCCCC(=O)O)C(=O)NC1c1cccc(Cl)c1Cl (configuration not stated)	i
CCC(C)(C(=O)NC1CCCC1)N(C(=O)c1ccccn1)c1ccc(C)cc1 (configuration not stated)	i
COc1ccc(C)cc1S(=O)(=O)N(CC(=O)NCc1ccc(Cl)cc1)Cc1ccccc1	i
COC(=O)c1c(NS(=O)(=O)c2ccc3ccccc3c2)sc2c1CCCC2	i
Cn1c(N)c(C(=O)COC(=O)c2ccnc3ccccc23)c(=O)n(C)c1=O	i
Cc1nnc(SCc2ccc(F)cc2Cl)s1	i
CCc1nnc(SCC(=O)NC2CCCC2)nc1CC	i
(listing goes on)
SMILES	MT1-MMP reporter
CN(C)/C=N/c1cc(=O)n(Cc2ccccc2)c(=O)n1C	i
CCOC(=O)c1ccc(CSc2nnc(C)n2N)o1	i
Cc1nc2c(cnn2-c2ccccc2Cl)c(=O)n1-c1ccc(C(C)C)cc1	i
CC(C(=O)Nc1sc2c(c1C(=O)NCc1ccco1)CCCC2)N1C(=O)c2ccccc2C1=O (configuration not stated)	i
O=C1C(Cl)=C(NC2CCc3ccccc32)C(=O)c2ncccc21 (configuration not stated)	i
O=C(NCc1ccccc1)c1sc(=S)n2c1[nH]c(=O)c1ccccc12	i
CC(=O)c1c(C)nc(-c2ccccc2)nc1NC(=O)C(C)C	i
N#CCC(=O)NC(=O)NCC1CC1	i
O=C(C1CC(c2ccc(F)cc2)=NO1)N1CCCc2ccccc21 (configuration not stated)	i
COc1cc2c(cc1OC)-c1nnc(-c3cccs3)n1C1(CCCC1)C2	i
CCC(=O)N1CCN(c2ccc(NC(=O)c3c(F)c(F)c(OC)c(F)c3F)cc2)CC1	i
COC(=O)C1=C(C)N(CCCC(=O)O)C(=O)NC1c1cccc2ccccc12 (configuration not stated)	i
CC1CC(C)CN(CCCNC(=O)Cn2ncn3cccc3c2=O)C1 (configuration not stated)	i
CCOc1ccc2c(=O)c(Oc3ccccc3OCC)coc2c1	i
Cc1ccc(CN2C(=O)CCC2(C)C(=O)NCc2cccnc2)cc1 (configuration not stated)	i
CC(C)CCCC(C)NS(=O)(=O)Cc1ccccc1 (configuration not stated)	i
COC(=O)[C@@]1(Cc2ccc(F)cc2)[C@H]2c3cc(C(=O)N4CCCC4)n(Cc4cccc5ccccc45)c3C[C@H]2CN1C(=O)c1ccccc1	i
